Calb FLC: C. albicans growth modulation with fluconazole. C. albicans CaCi-2 (fluconazole-resistant clinical isolate) + fluconazole, Alamar Blue growth, 48 h. actives 0.57% (n = 300,000). growth inhibition, % (no concentration beside the values). AID 1979;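 active = most replicates above 75%; inconclusive = exactly half above 75%; inactive = most below 75%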;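 note: all wells also contain fluconazole at 8 µg/ml as a sub-toxic cotreatment; 0% = median of DMSO wells and 100% = median of geldanamycin control wells; wells of about 8 µL received 7.5 nL stock; the first replicate is given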
LANA-H2A inh: blocks KSHV LANA binding to histone H2A/H2B; Q9QR71; cell-free LANA-H2A/H2B peptide, fluorescence polarization; inhibition, % (no concentration beside the values); actives 0.6% (n = 320,000); AID 2629; in the data active = inhibition mostly above about 10%, no sharp cut-off; inactive = mostly below about 6.7%;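 note: stock transfer was 7.5 nL into about 10 µL; 0% = median of vehicle wells and 100% = median of positive control wells; one replicate is shown; the record names a cut of 25% in any replicate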
Beta cell apopt: blocks beta cell apoptosis; INS-1E cytokine-induced death, ATP luminescence, 48 h; percent of positive-control rescue, neutral wells zero; protection from apoptosis, % (concentration not given with the values); actives 0.8% (n = 300,000); AID 435005;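 active = all replicates at 75% or more, or half of them and the mean; inconclusive = half reach 75% but not the mean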;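 note: 0% = cytokine-treated negative control wells and 100% = positive control rescue; higher means more ATP so stronger rescue from cytokine killing; wells of about 40 µL received 100 nL stock; the first replicate is given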
RanGTP-Imp inh: disruptors of Ran-importin-beta complex formation – biochemical, FRET, CFP-Ran, YFP-importin-beta, homogeneous, primary screen; actives 1.1% (n = 300,000); cell-free CFP-Ran/YFP-importin-beta FRET ratio; inhibition, % (no concentration beside the values);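 active = most replicates above 15%; inconclusive = exactly half above 15%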;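 note: 0% = DMSO wells and 100% = Ran loaded with GDP instead of GTP; wells of about 40 µL received 100 nL stock; the first replicate is given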
Vif TR-FRET: inhibitors of Vif binding to APOBEC3G peptide, primary screen, biochemical, TR-FRET, GST-Vif 1-94, biotin-A3G peptide, dose response retest (AID 1117319); one-dose inhibition, %; IC50 in µM for titrated hits; TR-FRET GST-Vif / biotin-A3G peptide binding; higher % means a stronger effect; test concentration not given here; strong numbers were not always called active; actives 0.57% (n = 260,000);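 active = above the screen mean plus three standard deviations and confirmed in dose response; inconclusive = results disagree or hit not tested in dose response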;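 note: Vif residues 1-94 fused to GST binding biotinylated APOBEC3G peptide 110-148; 0% = full assay without inhibitor and 100% = GST in place of GST-Vif; retest series ran down from 100 µM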
MLL AF4-AF9 inh: inhibitors of human MLL-AF4/AF9 interaction. AID 651704. inhibition, % at 10 µM. AlphaScreen, biotin-AF4 peptide binding to FLAG-AF9. actives 0.47% (n = 350,000);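 active = every replicate reaching a set inhibition limit, whatever the replicate mean, cut at about 25% in these data; inconclusive = mean inhibition reaches that limit but some replicates miss it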;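 note: 0% = plate neutral control median and 100% = total signal loss; the record names both 10 and 1 µM as test concentration; the first replicate is given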
Target sequence (P42568 whole entry, looked up): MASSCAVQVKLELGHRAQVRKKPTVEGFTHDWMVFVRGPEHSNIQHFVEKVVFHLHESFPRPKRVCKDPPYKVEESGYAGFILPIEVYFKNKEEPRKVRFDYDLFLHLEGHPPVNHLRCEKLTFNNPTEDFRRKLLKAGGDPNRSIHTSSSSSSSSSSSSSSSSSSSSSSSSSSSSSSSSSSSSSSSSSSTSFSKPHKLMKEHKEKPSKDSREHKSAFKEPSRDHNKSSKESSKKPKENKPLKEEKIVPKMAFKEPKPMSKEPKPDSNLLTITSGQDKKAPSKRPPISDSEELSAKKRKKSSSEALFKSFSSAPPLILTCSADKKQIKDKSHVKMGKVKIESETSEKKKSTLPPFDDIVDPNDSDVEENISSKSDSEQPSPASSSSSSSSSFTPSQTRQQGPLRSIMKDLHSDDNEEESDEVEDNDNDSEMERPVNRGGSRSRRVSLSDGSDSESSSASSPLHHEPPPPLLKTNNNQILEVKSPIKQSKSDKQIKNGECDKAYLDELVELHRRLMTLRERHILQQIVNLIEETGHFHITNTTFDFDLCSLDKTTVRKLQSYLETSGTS
A1 inh: inhibitors of the anti-apoptotic protein A1, read as caspase activation | MEF A1-2A-BIM cells, Caspase-Glo 3/7 luminescence, 3 h; percent of clofoctol response, vehicle zero | caspase activation, % (concentration not given with the values) | actives 0.066% (n = 330,000);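 active = over half of replicate activation scores above 10%, or exactly half above 10 with the replicate mean above 10; inconclusive = replicate mean below 10 yet half the replicates above 10; inactive = over half of replicates below 10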;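 note: wells of about 30 µL received 50 nL stock; many hits fall short of the cut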
T cruzi repl: blocks replication of Trypanosoma cruzi | actives 1.4% (n = 300,000) | inhibition, % (no concentration beside the values) | T. cruzi beta-gal in NIH3T3, luminescence, 90 h;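 active = mean inhibition across valid replicates above about 55%, limit read from the data; inconclusive = mean below that limit but half or more replicates reach it; inactive = mean below it, under half of replicates reach it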;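 note: signal also drops with host cell toxicity which is not excluded here; 0% = plate median of DMSO wells and 100% = zero luminescence signal; higher percent means less beta-gal luminescence so fewer parasites; stock transfer was 50 nL into about 50 µL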
Starred values were filed as active, the others as inactive; ? = inconclusive; . = not tested or not shown. Outcome played no part in choosing rows; 4.3% or so of the library scored in one or more.

SMILES	Calb FLC	LANA-H2A inh	Beta cell apopt	RanGTP-Imp inh	Vif TR-FRET	MLL AF4-AF9 inh	A1 inh	T cruzi repl
CCOC(=O)C1CCCN(c2c(N3CCN(C4CCCCC4)CC3)c(=O)c2=O)C1 (stereo not drawn)	2.7	0.6	-2.8	-1.8	17.7%	5.7	0.5	20.7
COc1ccc(N2CCN(c3cc(=O)n(Cc4ccc(F)cc4)c(=O)[nH]3)CC2)cc1	.	-0.4	-3.4	.	-0.3%	2.2	-0.2	.
CC1=CC(=C(C#N)c2nc3ccccc3s2)C=C(C)N1CC1CCCO1 (stereo not drawn)	-5.1	0.6	9.8	-2.1	6.2%	0.5	0.0	25.0
CN(CC(=O)Nc1ccccc1Cl)C(=O)COC(=O)c1cc([N+](=O)[O-])ccc1N1CCOCC1	-0.9	-2.3	8.2	1.8	-2.5%	2.5	-0.3	29.1
N#C/C(=C\Nc1ccc2c(c1)OCCO2)c1nc2ccccc2[nH]1	-0.1	1.1	8.6	4.7	10.6%	.	-0.1	38.2
COC(=O)/C(C#N)=C/c1ccc(-c2ccc(S(N)(=O)=O)cc2)o1	-5.2	6.6	3.9	?	.	9.2	-0.3	4.9
COc1cccc(C2C(C(=O)OC(C)C)=C(C)Nc3ncnn32)c1 (stereo not drawn)	2.5	-2.6	-1.3	?	-1.9%	.	0.4	-9.5
COCc1c(C(=O)NCCOc2ccc(Cl)cc2)oc2ccccc12	.	-7.0	-7.1	.	.	-4.1	0.0	.
Cn1c(CC(=O)Nc2ccccc2)nnc1SCC(=O)Nc1ccc(N2CCOCC2)cc1	5.3	5.8	3.7	3.6	6.7%	-1.3	0.4	7.1
CCCCC(C(=O)O)C(C)CC(=O)Nc1ccn(-c2ccccc2)n1 (stereo not drawn)	-4.7	0.4	-0.2	?	1.9%	.	0.3	-12.9
O=c1c2c3c(sc2n(CCN2CCCCC2)c(=O)n1Cc1ccco1)CCCCC3	5.1	-2.2	93.4*	-0.1	30.5%	.	0.1	62.8*
O=C(COC(=O)CN1C(=O)c2ccccc2C1=O)Nc1ccccc1	.	-6.8	-4.9	.	2.9%	-1.9	1.0	.
COc1ccc2nc(C)cc(Nc3ccc(C(=O)O)cc3)c2c1	-6.4	1.2	-6.0	2.8	-8.6%	.	0.4	-5.4
CSc1cccc(NS(=O)(=O)c2ccc3c(c2)NC(=O)C(C)C(=O)N3)c1 (stereo not drawn)	0.9	4.3	1.7	0.9	.	-5.5	-0.1	-31.0
CCCc1cc(C(=O)N/N=C/c2ccc(CC)s2)c2ccccc2n1	-6.5	2.7	12.4	6.2	-8.4%	.	0.0	-32.8
CCOC(=O)c1cnn(C)c1NC(=O)c1ccc([N+](=O)[O-])cc1	-16.6	-3.2	.	-1.4	.	-7.1	-1.6	-3.5
N#Cc1nc(-c2ccc(F)cc2)oc1NCc1ccco1	30.7	-4.1	-14.0	-1.1	.	0.8	-0.7	31.0
Cn1c(CN2CCOCC2)nnc1SCC(=O)Nc1cc(Cl)ccc1Cl	8.5	-0.4	-6.9	4.4	.	1.9	1.4	-19.2
Cc1ccc(-c2nc3ccccc3c(C(=O)NCc3cccs3)c2C)cc1	2.0	-0.9	11.9	-1.6	4.2%	.	0.2	33.7
Cc1cccc(NC(=S)N2CCN(c3ccccn3)CC2)c1	1.9	-3.2	-6.3	?	.	-1.6	-0.6	6.2
Cc1nn(CCCC(=O)N2CCN(c3ccc(F)cc3)CC2)c(C)c1[N+](=O)[O-]	14.5	-0.1	-3.7	2.9	20.0%	-37.4	0.6	4.8
Cc1ccccc1C(=O)NC(=S)Nc1ccccc1C(=O)O	-13.3	0.4	-3.8	4.1	3.6%	-5.4	0.9	-17.1
O=C(CS(=O)c1ccc(C(F)(F)F)cc1[N+](=O)[O-])Oc1ccccc1 (stereo not drawn)	0.7	1.9	-26.4	-1.4	24.2%	.	9.2*	-11.5
O=C(CN1C(=O)NC2(CCc3ccccc32)C1=O)NCCc1ccccc1 (stereo not drawn)	.	4.2	-0.7	.	.	-7.3	0.2	.
NC(=O)CC(NC(=O)Cc1cccc2ccccc12)c1ccc(NC2CCCCCCC2)c([N+](=O)[O-])c1 (stereo not drawn)	0.0	-1.4	-1.9	-0.6	.	6.5	0.0	-8.7
COc1ccc(NC(=O)C2CCCC2)cc1	-5.4	-1.4	4.4	1.6	.	0.4	0.1	-1.8
COc1ccc(C(=O)/C=C/c2cccs2)c(OC(=O)N2CCOCC2)c1	1.6	-1.0	-7.1	6.4	.	5.1	1.1	4.4
NC(=O)C1CCN(C(=O)CN2CCc3ccccc32)CC1	-7.5	-3.3	-0.3	6.0	20.4%	.	-0.3	-5.7
CCN(CC)S(=O)(=O)c1ccc(NC(=O)Cn2c(=O)oc3ccccc32)cc1	-10.7	4.3	-6.8	1.3	-4.5%	.	-0.8	-9.9
CCOC(=O)C1CCN(C(C(=O)Nc2ccc3c(c2)OCCO3)c2ccccc2)CC1 (stereo not drawn)	4.6	2.0	1.4	2.2	?	.	0.0	-9.7
Cc1ccc(NC(=O)C2CCCN(c3ncnc4c3nc3n4CCCCC3)C2)nc1 (stereo not drawn)	13.2	5.4	-8.6	5.8	.	5.9	0.0	3.9
O=C(CCc1nc2ccccc2c(=O)[nH]1)NCCN1C(=O)S/C(=C\c2ccc(Cl)cc2Cl)C1=O	7.4	-2.0	-6.9	0.4	1.9%	-0.1	-0.5	-5.6
Oc1ccc(-c2nnc(SCc3ccccc3)o2)cc1	0.8	1.0	-6.6	-3.3	8.1%	-8.3	-0.4	-14.7
COc1cc2c(cc1OC)C(c1cccs1)N(C(=O)c1ccc(S(=O)(=O)N(C)C)cc1)CC2 (stereo not drawn)	2.8	0.2	15.1	5.2	.	-16.7	0.6	7.3
Cc1nn(CCc2nc(-c3ccco3)cs2)c2[nH]c(=O)cc(C(F)(F)F)c12	1.6	-2.1	-1.3	4.1	?	4.8	0.3	-4.6
COc1ccc(OC)c(NC(=O)C2CCN(C(=O)C3CC(=O)N(c4ccc(C)cc4)C3)CC2)c1 (stereo not drawn)	2.7	-2.7	-1.8	-0.3	.	1.2	0.6	1.9
CN1CCc2ccccc2C1C1CCNCC1 (stereo not drawn)	2.5	2.4	-1.9	5.7	25.2%	.	0.8	-19.2
CCN(CC(=O)Nc1cccc(S(=O)(=O)N2CCOCC2)c1)Cc1ccccc1	-1.7	0.3	.	0.9	-1.3%	1.0	-0.1	-9.6
O=C1CC(N2CCOCC2)C(=O)N1c1cccc(Cl)c1 (stereo not drawn)	-17.4	-4.1	-0.1	?	2.0%	.	0.3	6.2
COc1ccc(N2CCN(C(CNC(=O)C(=O)NCCCO)c3ccco3)CC2)cc1 (stereo not drawn)	4.9	4.2	2.4	2.0	5.1%	1.5	-0.1	-2.0
Cc1ccc(C)c(S(=O)(=O)C(C#N)c2nc3ccccc3nc2N2CC(C)OC(C)C2)c1 (stereo not drawn)	25.1	4.4	25.1	?	7.1%	.	0.0	-5.2
Cc1ccc(C(C)C)c(OCCn2c(=O)oc3ccccc32)c1	-6.0	-2.2	7.8	2.3	2.4%	.	0.0	23.9
CC1CCN(S(=O)(=O)N2CCC(C(=O)NCCN3CCOCC3)CC2)CC1	1.9	-5.8	0.8	-4.0	8.4%	5.7	0.2	2.5
Cc1ccc(NCCC(=O)c2cccc([N+](=O)[O-])c2)cc1	-1.9	-4.1	-6.1	-1.2	10.1%	.	0.0	25.3
CCOc1ccc(S(=O)(=O)N2CCOCC2)cc1NC(=O)Cc1c(F)cccc1Cl	-6.7	0.8	9.8	2.5	1.9%	0.5	0.4	4.9
COc1ccc(OC)c(NC=C2C(=O)OC(C)(C)OC2=O)c1	11.0	2.8	-0.5	-0.3	?	.	-0.1	-1.1
C=CCOc1ccc2c(c1)c(S(=O)(=O)c1ccc(C)cc1)cn2COC	-0.4	-1.8	.	-1.1	-4.2%	.	0.3	14.3
CN(c1ccccc1)S(=O)(=O)c1ccc(C(=O)NCC(c2ccco2)N2CCCCC2)cc1 (stereo not drawn)	.	38.6*	0.5	.	.	4.3	0.3	.
CCN(C(=O)COC(=O)c1cccnc1Nc1ccccc1F)C1CCS(=O)(=O)C1 (stereo not drawn)	-6.8	-2.9	4.7	0.4	?	.	-0.7	3.7
Cc1cccc(N2CCN(C(=O)c3nn(C)c4c3CS(=O)(=O)c3ccccc3-4)CC2C)c1 (stereo not drawn)	17.7	-0.7	4.9	1.1	.	4.3	0.0	5.7
Further structures.
SMILES	Calb FLC	LANA-H2A inh	Beta cell apopt	RanGTP-Imp inh	Vif TR-FRET	MLL AF4-AF9 inh	A1 inh	T cruzi repl
CCn1cnc2c1c(=O)n(CC(=O)NCC(F)(F)F)c(=O)n2Cc1ccccc1	0.7	0.8	-16.5	4.7	-7.2%	-0.8	0.1	-3.5
CSc1nc(Oc2ccc(F)cc2)c2ccccc2n1	-11.9	-3.1	-4.6	1.0	-1.3%	.	1.9	12.6
CC1(c2ccc(Cl)cc2)NC(=O)N(CC(=O)NCc2ccc(F)cc2)C1=O (stereo not drawn)	-4.5	-0.7	1.0	1.7	.	-0.5	0.2	7.9
CC1CCCCN1C(=O)CSc1nc(N)nc(N)n1 (stereo not drawn)	6.1	4.0	.	9.4	-3.7%	0.8	0.8	-4.9
CN1C(=O)/C(=C2\SC(N3CCCCCC3)=NC2=O)c2ccccc21	3.9	-0.7	.	-2.8	13.0%	.	-1.1	34.2
CCOc1ccc(N(C(C)C(=O)N2CCCCCC2)S(C)(=O)=O)cc1 (stereo not drawn)	-12.8	-1.3	-5.7	-0.9	.	0.1	0.7	3.3
COc1cc(C2C3=C(CCCC3=O)Nc3c2c(C)nn3-c2cccc(C)c2)cc(OC)c1O (stereo not drawn)	5.6	-2.9	-2.9	-1.4	.	13.5	0.5	11.1
CCOc1ccc(C(=O)NCC(c2cccs2)N(C)C)cc1OCC (stereo not drawn)	-23.1	-4.4	-5.4	-4.0	.	.	-0.1	2.1
COc1ccc(C(=O)OCC(=O)c2ccc(CNC(C)=O)s2)cc1	.	0.3	1.1	.	.	0.1	0.1	.
O=C(COC(=O)CN1C(=O)NC2(CCCC2)C1=O)Nc1ccc(C(F)(F)F)cc1[N+](=O)[O-]	-2.0	3.3	-2.0	-0.7	3.4%	8.9	-0.3	-9.1
NC(=O)CSc1nnnn1-c1cccc(Cl)c1	-17.3	1.7	-6.5	-2.4	?	3.2	0.4	-10.5
COc1cc(SC)ccc1C(=O)Nc1cc(C)c(OCC(=O)N2CCOCC2)c(C)c1	-9.1	-0.1	-4.9	4.1	.	0.0	1.0	17.3
COc1ccccc1C(=O)COC(=O)c1cc(S(=O)(=O)N2CCCCC2)ccc1N1CCOCC1	-1.1	-6.2	.	5.2	4.2%	-17.3	0.2	8.8
COc1ccc(S(=O)(=O)N2CCCC2C(=O)Nc2nccs2)cc1 (stereo not drawn)	0.8	1.9	-2.9	0.2	1.0%	.	1.2	2.6
CC(C)OCCCn1c(=N)c(C(N)=S)cc2c(=O)n3ccccc3nc21	-9.8	2.7	.	13.3	18.1%	.	-0.4	69.0*
Cc1ccc2c(c1)C(=O)C(=O)N2CCOc1ccccc1	-14.9	0.3	-2.4	2.6	.	-20.6	1.2	15.6
CCN(CC)S(=O)(=O)c1ccc2oc(C(=O)N3CCCCCC3)c(C)c2c1	11.7	-2.7	-0.5	0.8	-3.7%	.	-0.8	15.1
O=C(Oc1cc(=O)oc2ccccc12)c1cccnc1Cl	7.4	3.6	-3.1	1.6	-3.8%	-0.3	-0.2	-7.2
Cc1cccc(NC(=O)[C@@H]2CCCN2C(=O)OC(C)(C)C)c1C	2.4	-2.9	-5.3	-1.3	.	0.1	-0.6	-5.6

From PubChem BioAssay
